StopGo reporter = FMDV 2A StopGo reporter, luciferase signal; Potency, µM (highest dose often 57.9 µM), for inactives: at the top dose signal change, negative = less light; human cells with a luciferase reporter of 2A StopGo recoding; control for the full effect not named in the record; 410,000 tested, 1.2% active; AID 1159524; active = well fitted falling curve with a large enough effect; inconclusive = small, poorly fitted or top-dose-only effect; inactive = no such curve, though single readings can be large or run the other way; tested in HEK293T cells; note: % is set by controls: 0 for no effect and ±100 for the full control effect; nearly all actives have a fitted effect of over 45% in size; luciferase light after 4 h
NS1 inh = blocks influenza NS1 protein function | AID 2326 | Potency, µM (doses to about 46.1 µM), without a hit: top-dose activity, positive = more growth | 270,000 tested, 0.4% active | S. cerevisiae slowed by influenza A NS1, growth recovery by OD600; active means well fitted rising curve with a large enough effect; inconclusive means small, poorly fitted or top-dose-only effect; inactive means no such curve, though single readings can be large or run the other way; note: nearly all actives have a fitted effect of over 50% in size
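S. cerevisiae expressing influenza A NS1, grown in glucose, washed, then diluted 1:100 into pH 6.0 -URA galactose medium with 23 nl compound. Growth recovery read as OD600; NS1-free strain serves as control.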
Lassa entry inh = Lassa virus entry inhibition. Lassa virus pseudotype entry inhibition, cell reporter; control for the full effect not named in the record. Potency, µM (series often up to 37.9 µM), inactives show at the top dose activity change, negative = inhibition, usual class: inhibitors. 300,000 tested, 1.2% active. AID 540256; active means well fitted inhibition curve with a large enough effect; inconclusive means small, poorly fitted or top-dose-only effect, or effect the other way; inactive means flat fitted curve, though single readings scatter; tested in HEK293 cells; note: % is set by controls: 0 for no effect and ±100 for the full control effect; nearly all actives have a fitted effect of over 50% in size; luciferase read-out
Cruzain Triton = inhibitors of Trypanosoma cruzi cruzain with detergent. purified cruzain, Z-FR-AMC fluorescence, 0.01% Triton. Potency, µM, for the others: max response, negative = inhibition, actives largely listed as inhibitors. 200,000 tested, 0.43% active;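 note: plate controls were neutral wells for no effect and buffer without enzyme for full effect; nearly all actives have a fitted effect of over 40% in size; top concentration of the series not given in the record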
Target sequence (P25779 123-467 limits assumed): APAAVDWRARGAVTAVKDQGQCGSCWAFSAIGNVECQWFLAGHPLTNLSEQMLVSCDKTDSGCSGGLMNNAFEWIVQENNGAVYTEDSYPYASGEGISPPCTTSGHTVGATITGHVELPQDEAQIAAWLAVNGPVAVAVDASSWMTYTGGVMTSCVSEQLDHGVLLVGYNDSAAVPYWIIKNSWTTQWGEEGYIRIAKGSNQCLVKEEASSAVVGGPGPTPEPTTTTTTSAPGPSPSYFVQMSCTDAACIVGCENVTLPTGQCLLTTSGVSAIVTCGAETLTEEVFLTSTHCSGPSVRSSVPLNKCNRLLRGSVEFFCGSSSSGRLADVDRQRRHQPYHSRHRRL
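Cysteine protease activity tested under reducing, mildly acidic conditions (100 mM sodium acetate pH 5.5, 5 mM DTT) plus 0.01% Triton X-100. Cruzain 1.5 nM; substrate Z-FR-AMC 2 uM; 15 min compound preincubation at room temperature.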
SARS PLP yeast = SARS-CoV PLP inhibition in yeast | 330,000 tested, 0.19% active | Potency, µM (top dose mostly 32.9 µM), for the others: top-dose activity, positive = growth rescue | S. cerevisiae expressing SARS-CoV PLpro, growth rescue; control for the full effect not named in the record; active means well fitted rising curve with a large enough effect; inconclusive means small, poorly fitted or top-dose-only effect; inactive means no such curve, though single readings can be large or run the other way; note: 0% is about no effect; nearly all actives have a fitted effect of over 55% in size; growth read by luminescence after 48 h
Cruzain inh noDet = inhibitors of Trypanosoma cruzi cruzain without detergent | P25779 | purified cruzain, Z-FR-AMC fluorescence, no detergent | 200,000 tested, 2.3% active | Potency, µM, inactives show max response, negative = inhibition, hits mostly inhibitors;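 note: plate controls were enzyme without inhibitor for no effect and buffer without enzyme for full effect; nearly all actives have a fitted effect of over 40% in size; top concentration of the series not given in the record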
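Purified cruzain at 1.5 nM, pre-incubated 15 min with compound at room temperature in 100 mM sodium acetate pH 5.5, 5 mM DTT, 0.00005% Triton X-100. Reaction started with 2 uM Z-FR-AMC; AMC fluorescence increase over 60 s gives rate.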
MARV entry inh = blocks Marburg virus binding to or entry into cells; Marburg virus pseudotyped entry inhibition, cell reporter; control for the full effect not named in the record; about a third of the inactives were read at about 46 µM; Potency, µM (highest dose often 37.8 µM), without a hit: at the top dose activity change, negative = inhibition, usual class: inhibitors; 300,000 tested, 1.8% active; active = well fitted inhibition curve with a large enough effect; inconclusive = small, poorly fitted or top-dose-only effect, or effect the other way; inactive = flat fitted curve, though single readings scatter; tested in HEK293 cells; about a fifth of its hits are not listed in these tables; note: % is set by controls: 0 for no effect and ±100 for the full control effect; luciferase read-out
RE007 growth inh = less growth of the S. pombe RE007 Vpr strain | S. pombe RE007 Vpr strain, BacTiter-Glo ATP luminescence, 24 h; control for the full effect not named in the record | Potency, µM (highest dose often 92.2 µM), without a hit: at the top dose activity change, negative = less growth | 360,000 tested, 0.21% active | AID 651644; active = well fitted falling curve with a large enough effect; inconclusive = small, poorly fitted or top-dose-only effect; inactive = no such curve, though single readings can be large or run the other way;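 note: % is set by controls: 0 for no effect and ±100 for the full control effect; nearly all actives have a fitted effect of over 50% in size; the assay follows cell death caused by Vpr and the record does not say whether a fall means rescue or toxicity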
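Fission yeast strain RE007, carrying one chromosomally integrated HIV-1 vpr copy, was seeded at OD 0.01 in PMG+AL medium with 23 nL pinned compound. After 24 h at 30 °C and 99% humidity, viability was read by BacTiter-Glo luminescence.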
* = called active by the depositor; ? = inconclusive; nt = no result given; & = joins results of further samples; [ ] = remark or other dose. Unless noted, calls come from the whole dose curve; as a rule, active = well fitted curve in the direction sought with a large enough effect; inconclusive = small, poorly fitted or top-dose-only effect, or another doubt; inactive = no such curve, though single readings can be large; an effect the other way counts as inactive or inconclusive. Potency is the fitted concentration of half-maximal effect. Outcome played no part in choosing rows. About 4.5% of those tested had a hit in this group.

Values run as follows: MARV entry inh	Cruzain inh noDet	StopGo reporter	NS1 inh	RE007 growth inh	Lassa entry inh	SARS PLP yeast	Cruzain Triton
OCCn1cnc2c(SCc3ccccc3)ncnc21
 : ?	9%	15%	0%	-7%	?	nt	-1.8%
O=C1CCCN1c1cc(Cl)ccc1Cl
 : 8%	0%	-8%	-4%	-13%	0%	20%	4.2%
COc1ccc(NC(=O)/C(C#N)=C/c2ccc[nH]2)c(OC)c1
 : nt	nt	9%	-3%	-2%	nt	-10%	nt
Cc1noc(C)c1C(=O)NCc1ccccc1F
 : -8%	nt	10%	nt	-9%	0%	0%	nt
CCOC(=O)C1=C(C)N(CC(C)C)C(=O)/C1=C\c1cccs1
 : 12%[46.1 µM]	nt	-4%	0%	-6%	4%	-1%	nt
O=C(CCc1ccc(S(=O)(=O)NC2CCCCC2)cc1)NCc1ccc(Cl)cc1
 : -10%	1%	-22%	-1%	15%	-12%	3%	-4.9%
CCN(CC)C(=O)c1ccc2c(c1)N(Cc1ccccc1)C(=O)CS2=O (centres undefined)
 : nt	12%	-11%	6%	6%	nt	-2%	-0.3%
O=C(Cc1ccc(Br)cc1)OCC(=O)c1ccc2c(c1)OCCO2
 : ?	0%	-8%	-10%	-1%	0%	-3%	-6.1%
Cn1nc(C(C)(C)C)cc1C(=O)Sc1cccc(Br)c1
 : -3%[46.1 µM]	nt	-30%	0%	0%	-16%	-9%	nt
Cc1ccc(C)c(CN2C(=O)c3ccccc3S(=O)(=O)c3ccc(C(=O)N4CCN(Cc5ccccc5)CC4)cc32)c1
 : 25%[46.1 µM]	-9%	-7%	nt	nt	-7%[46.1 µM]	nt	0.3%
CCC(=O)Oc1ccc(C(=O)Nc2ccc3c(c2)C(=O)N(C2CCCCC2)C3=O)cc1
 : ?	-18%	?	5%	15%	?	4%	1.6%
Cc1oc(-c2ccccc2F)nc1CS(=O)CC(=O)NCc1ccc(F)cc1 (centres undefined)
 : nt	nt	-24%	19%	-11%	nt	27%	nt
COCCN(C(=O)COC(=O)CCC1CCCC1)c1c(N)n(Cc2ccccc2)c(=O)[nH]c1=O
 : 6%[46.1 µM]	nt	0%	nt	10%	14%	1%	nt
O=C(COC(=O)C1CCC1)NCCc1ccc(Cl)cc1Cl
 : -24%[46.1 µM]	nt	-21%	14%	-2%	7%[46.1 µM]	3%	nt
CC(Nc1cc(N2CCN(C(=O)C(C)(C)C)CC2)ccc1[N+](=O)[O-])c1ccccc1 (centres undefined)
 : ?	-4%	?	12%	-3%	23µM*	4%	-3.5%
COCC(C)n1c(C)cc(C(=O)CSc2cc(C)c3ccccc3n2)c1C (centres undefined)
 : ?	4%	-14%	?	2%	-13%	11%	7.8%
O=C(OCN1C(=O)c2ccccc2C1=O)c1ccccc1
 : -3%	-9%	-3%	-8%	-6%	21%	-6%	-3.2%
O=C(Nc1cccc(F)c1)C1CCCN1S(=O)(=O)c1cccc2cccnc12 (centres undefined)
 : nt	-5%	0%	-8%	0%	nt	-2%	2.7%
O=C(NCCc1csc(-c2ccccc2)n1)c1ccccc1F
 : nt	nt	-9%	-46%	-25%	nt	5%	nt
Cc1ccc(CN(Cc2ccccc2)C(=S)Nc2ccccc2C)o1
 : -2%[46.1 µM]	nt	-11%	nt	2%	?	2%	nt
COc1cc(C(=O)Nc2ccc(N(C)C)cc2)cc(OC)c1OC
 : -11%	-7%	64%[activator]	-3%	2%	-13%	-8%	-5.7%
CCc1ccc(C(=O)Nc2ccc(S(=O)(=O)Nc3nc(C)cc(C)n3)cc2)o1
 : -2%	-8%	20%	-4%	-2%	-2%	3%	-4.2%
COCc1c(C(=O)N/N=C/c2ccc(C)o2)nnn1-c1nonc1N
 : -22%[46.1 µM]	nt	-6%	9%	11%	1%[46.1 µM]	1%	nt
Cc1cc(NC(=O)CCC(=O)N(CC(=O)NC2CCCC2)Cc2ccco2)no1
 : ?	2%	-17%	-5%	-1%	6%	4%	8.8%
Cn1c2ccccc2c2cnn(CC(=O)Nc3ccc(F)cc3F)c(=O)c21
 : nt	nt	18%	5%	16%	nt	-1%	nt
CCNC(=O)COC(=O)c1cc(-c2ccc(OC)cc2)nc2ccccc12
 : 6%	22%	10%	-25%	-21%	?	-19%	-7.0%
COc1ccc(CNC(=O)N2CCc3ccccc3C2)cc1Cl
 : -17%[46.1 µM]	nt	1%	-36%	-12%	-16%[46.1 µM]	2%	nt
Cc1ccc(OCC(=O)c2ccc(Cl)s2)c([N+](=O)[O-])n1
 : -2%[46.1 µM]	nt	65%[activator]	nt	-19%	-8%	2%	nt
Cn1c(O)c(/C=C/C=Nc2ccccc2)c(=O)n(C)c1=S
 : 1%	-12%	-22%	18%	-1%	14%	6%	-2.4%
C#CCn1c(=NC(=O)CSCC(=O)N2CCOCC2)sc2ccccc21
 : -3%&-3%	9%	-4%	4%&-2%	-8%	-13%	-9%	-6.4%
CS(=O)(=O)N(CCc1ccccc1)CC(=O)NCc1ccc(Cl)cc1
 : ?	nt	-3%	-5%	-6%	-9%	0%	nt
Cc1cnc(NC(=O)CSc2ccccc2)s1
 : 14%	-8%	12%	-7%	2%	11%	-8%	0.6%
COC(=O)C(CC(=O)c1ccc(Cl)cc1)c1ccc(C(C)C)cc1 (centres undefined)
 : 2%	0%	-3%	-16%	7%	?	-19%	-3.0%
CCOc1ccc(S(=O)(=O)N2CCCCC2)c(C)c1C
 : nt	nt	-11%	-9%	6%	nt	-2%	nt
CCNC(=O)CN(c1ccc(CC)cc1)S(C)(=O)=O
 : 15%	-12%	4%	12%	17%	4%	8%	1.0%
CC(CC(=O)Nc1ccc(F)cc1)S(=O)(=O)c1ccc2c(c1)NC(=O)CO2 (centres undefined)
 : nt	nt	-10%	2%	-12%	nt	3%	nt
O=C(COC(=O)c1c(Cl)cccc1Cl)NC1CCCCC1
 : 14%[46.1 µM]	nt	26%	2%	1%	?	-1%	nt
CC1=Nc2cc(C(=O)NCc3ccco3)ccc2Sc2ccc(C)cc21
 : -41%	-8%	7%	18%	-22%	?	-23%	-9.7%
Cc1c(C(=O)N(Cc2ccc(Cl)cc2)CC2CCCO2)oc2ccc(F)cc12 (centres undefined)
 : 12%[46.1 µM]	-4%	-9%	nt	nt	-20%[46.1 µM]	nt	-7.4%
CCCCN(CC)CCCNC(=O)c1cc2cc3ccc(C)cc3nc2o1
 : ?	nt	-16%	2%	-3%	-18%	2%	nt
O=C(C[n+]1cc(-c2ccccc2)n2c1CCC2)OCc1ccccc1
 : ?	7%	-16%	4%	-25%	-6%	-18%	2.9%
CCOC(=O)C1=C(C)NC2=C(C(=O)CCC2)C1c1cc(OC)ccc1OC (centres undefined)
 : -10%	-4%	28%	0%	-1%	11%	11%	-0.2%
Cc1ccc(NC(=O)C2CCN(C(=O)c3ccccc3C)CC2)nc1
 : -2%	nt	-16%	nt	-19%	0%	-5%	nt
Cc1ccc(OCC(=O)N/N=C/c2c[nH]c3ccccc23)c([N+](=O)[O-])c1
 : ?	-2%	11%	22%	-5%	?	0%	-0.8%
COc1cc(C(=O)N/N=C/C23CC[C@@H](O)CC2(O)CC[C@@H]2[C@@H]3CCC3(C)C(C4=CC(=O)OC4)CCC23O)ccc1O (some centres undefined)
 : ?	nt	69%[activator]	1%	1%	?	-2%	nt
Cc1ccc(NC(=O)C2(c3ccccc3)CCOCC2)cc1
 : ?	nt	-6%	0%	11%	5%	-2%	nt
O=C(c1ccc(Cn2ccc([N+](=O)[O-])n2)cc1)N1CCN(Cc2ccccc2)CC1
 : ?	nt	?	3%	-13%	14%	2%	nt
Cc1ccc(S(=O)(=O)Cn2nnnc2C(CC(C)C)N2CCN(C(=O)c3ccco3)CC2)cc1 (centres undefined)
 : ?	?	3%	-16%	5%	?	6%	-2.8%
CCN1CCc2c(OCC(=O)Nc3cccc(C)c3)cccc2C1=O
 : 18%[46.1 µM]	nt	?	nt	-7%	-9%	0%	nt
Cc1ccc(NC(=O)CSc2nn(-c3ccc(Cl)cc3)c(=S)s2)cc1S(=O)(=O)N(C)C
 : ?	?	?	-3%	13%	11µM*	-6%	-1.6%

The listing continues:
Values run as follows: MARV entry inh	Cruzain inh noDet	StopGo reporter	NS1 inh	RE007 growth inh	Lassa entry inh	SARS PLP yeast	Cruzain Triton
COc1ccc(CCNC(=O)CC2SC(=NCCC(C)C)NC2=O)cc1OC (centres undefined)
 : ?	1%	-15%	-3%	2%	10%	7%	?
N#CC1(NC(=O)COC(=O)Cn2[nH]c(=O)c3ccccc3c2=O)CCCCC1
 : -8%	nt	-2%	nt	-13%	-3%	2%	nt
Nc1cccc2c(O)cc(S(=O)(=O)O)cc12
 : 4%[46.1 µM]	nt	3%	nt	-16%	-14%[46.1 µM]	nt	nt
Cc1cccc2cc3ccccc3nc12
 : 3%[46.1 µM]	nt	10%	nt	-19%	-14%	nt	nt
CC(=O)Nc1ccc(OCCF)cc1
 : 0%[46.1 µM]	nt	10%	nt	7%	-6%[46.1 µM]	-1%	nt
CCCc1nnc(NC(=O)CCC(=O)N2CCN(c3ccccn3)CC2)s1
 : 9%	3%	-12%	0%	-15%	-3%	2%	6.7%
COC(=O)c1ccccc1SC1CC(=O)N(c2cccc(C)c2)C1=O (centres undefined)
 : 13%	18%	7%	-34%	-7%	?	-48%	-5.1%
CCOC(=O)C1=C(C)NC(=O)/C1=C\N(C)C
 : 0%[46.1 µM]	nt	-8%	2%	12%	-11%	-1%	nt
COc1ccccc1C(=O)N/C(=C\c1ccc(Br)cc1)C(=O)NCCO
 : 14%	-3%	28%	1%	1%	14%	-2%	1.9%
Cc1nc(NC(=O)c2ccco2)sc1C(=O)Nc1ccc(Br)cc1
 : -1%	-8%	nt	-52%	-12%	-21%	-13%	-5.1%
Cc1ccc(-c2csc(NC(=O)CCNC(=O)c3ccccc3Cl)n2)cc1
 : -5%	-9%	?	20%	-16%	-11%	-17%	-7.2%

Source: PubChem (National Center for Advancing Translational Sciences (NCATS))
